# eIF4H FP inh = inhibitors of RNA binding by human eIF4H. Q15056. eIF4H fluorescence polarization binding assay. inhibition, % at 35 µM. 290,000 tested, 0.94% active. AID 2012;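 active means 50% or more with normal probe brightness, or confirmed in later tests; about a fifth of its hits are not listed in these tables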;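 further: calls also rest on retests at 20 µM and on dose response follow-up; 0% = protein and probe with vehicle and 100% = probe without protein; strong numbers were not always called active; many hits fall short of the cut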
# Rce1 inhib = inhibitors of yeast Ras-converting enzyme. yeast membranes, quenched prenylated peptide cleavage fluorescence. calls only. 290,000 tested, 0.27% active. AID 2563;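 active means fall in fluorescence gain of 50% or more versus controls, with final raw signal at or below 3038400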;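 further: plate controls were neutral control wells for no effect and wells lacking membranes for full effect; tested at 10 µM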
# Target sequence (Q03530 whole entry, looked up): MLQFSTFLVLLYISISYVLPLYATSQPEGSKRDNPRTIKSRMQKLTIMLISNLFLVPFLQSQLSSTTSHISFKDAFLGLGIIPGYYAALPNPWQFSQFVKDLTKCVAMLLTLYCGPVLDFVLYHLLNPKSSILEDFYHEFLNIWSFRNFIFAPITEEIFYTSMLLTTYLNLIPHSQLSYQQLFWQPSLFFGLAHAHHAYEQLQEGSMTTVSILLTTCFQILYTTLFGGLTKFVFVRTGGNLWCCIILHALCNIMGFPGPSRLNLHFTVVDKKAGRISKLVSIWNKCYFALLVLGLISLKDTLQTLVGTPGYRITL
# MT1-MMP act inh = blocks activation of human MT1-MMP; P50281; HT1080 RFP-PRO-GFP cells, GFP/RFP ratio fluorescence, overnight; percent of plate control window, DMSO zero; GFP/RFP ratio change, % at 20 µM; 360,000 tested, 0.061% active; AID 651647;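 active means GFP/RFP ratio change of at least 30% with cell ATP level not reduced by more than half and red fluorescence within 50% of control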; further: strong numbers were not always called active
#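 system = RFP-PRO-GFP reporter HT1080 cells | dosing = 20 µM single dose, 1% DMSO | timing = overnight cell settling, then overnight compound exposure, 37 °C, 5% CO2 | read-out basis = GFP/RFP fluorescence ratio | controls = DMSO and RFP-L50D-GFP cell wells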
# PABP FP inh = PABP-poly(A) binding inhibition. P11940. PABP-poly(A) RNA binding, fluorescence polarization. inhibition, % at 35 µM. 290,000 tested, 1% active. AID 2014;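 active means 50% or more with normal probe brightness, or confirmed in later tests; about a fifth of its hits are not listed in these tables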;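 further: calls also rest on retests at 20 µM and on dose response follow-up; controls were probe without protein and protein plus probe with vehicle; some compounds called inactive have numbers as strong as hits; many hits fall short of the cut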
# Target sequence (P11940 whole entry, looked up): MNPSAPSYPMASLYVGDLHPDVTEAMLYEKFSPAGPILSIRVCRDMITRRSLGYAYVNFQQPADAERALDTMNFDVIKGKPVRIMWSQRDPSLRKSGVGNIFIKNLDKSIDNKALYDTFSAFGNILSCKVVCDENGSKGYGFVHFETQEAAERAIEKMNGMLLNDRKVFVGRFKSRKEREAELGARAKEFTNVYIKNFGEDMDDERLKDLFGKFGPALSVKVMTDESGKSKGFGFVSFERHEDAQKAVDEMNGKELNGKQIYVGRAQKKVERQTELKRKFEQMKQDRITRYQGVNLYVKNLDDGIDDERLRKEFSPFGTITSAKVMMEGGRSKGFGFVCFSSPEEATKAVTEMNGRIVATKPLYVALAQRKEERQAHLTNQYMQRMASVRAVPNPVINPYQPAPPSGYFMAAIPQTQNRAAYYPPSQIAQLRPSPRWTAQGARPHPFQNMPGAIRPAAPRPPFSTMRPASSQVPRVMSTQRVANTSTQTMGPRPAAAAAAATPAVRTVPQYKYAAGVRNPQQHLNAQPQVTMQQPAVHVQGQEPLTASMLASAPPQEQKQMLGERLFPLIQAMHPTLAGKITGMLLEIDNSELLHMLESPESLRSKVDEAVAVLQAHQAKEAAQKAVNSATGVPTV
# HIV Env fusion = blocks HIV Env-driven cell-cell fusion. 360,000 tested, 1.1% active. HeLa-JRFL Env/CEM21 cell fusion, luciferase. inhibition, % at 12.3 µM;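 active means mean replicate inhibition score of at least 50 and every replicate individually at or above 50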;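 further: 0% = plate neutral controls and 100% = maraviroc near 300 nM; one replicate is shown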
# CSC inhib = cancer stem cell inhibition; 300,000 tested, 1.1% active; cancer stem cell-like cells viability, luminescence; inhibition, % at 7.5 µM;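 active means mean at 75% or more and at least half the replicates too; tested in HMLE shEcad cells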;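 further: 0% = median of negative and 100% = median of positive control wells; the first replicate is given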
# Yeast UUG start = alters start codon recognition fidelity in yeast; S. cerevisiae UUG-firefly luciferase reporter, luminescence/redox ratio; activity score, % at 18.7 µM; 350,000 tested, 0.13% active; AID 602363;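 active means replicate mean at a twofold rise or more, about +100% in these data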;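 further: firefly luciferase made from a UUG start codon reports start codon fidelity; reporter light over untreated wells divided by growth signal over untreated wells; some hits fall short of that in this replicate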
# eIF4H FP inh retest = second read-out of eIF4H FP inh, no call of its own (marks repeat the call); inhibition, %; compound at 20 µM; confirmation average;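 mean of two retest wells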
# PABP FP inh retest = also measured in PABP FP inh; calls as there; inhibition, %; compound at 20 µM; confirmation repeats;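 mean of two retest wells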
# MT1-MMP act inh RFP = further read-out of MT1-MMP act inh, marked with its call; RFP signal change, %; measured here: RFP expression control read;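 0 = vehicle wells; hits needed this value within 50% of zero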
# The depositor's hits bear a star; i = inactive; . = not tested or not shown.
SMILES,eIF4H FP inh,Rce1 inhib,MT1-MMP act inh,MT1-MMP act inh RFP,PABP FP inh,HIV Env fusion,CSC inhib,Yeast UUG start,others
O=C1C2CCCN2C(c2ccccc2)N1c1cccc(Cl)c1 (configuration not stated),0,i,-9,1,10,-2,0,-6,
O=[N+]([O-])c1ccc(CC(Cl)c2ccccn2)cc1 (configuration not stated),.,.,5,-1,.,-26,.,-9,
CCOc1ccc(N2CC(C(=O)NCCN3C(=O)S/C(=C\c4ccc(OC)cc4)C3=O)CC2=O)cc1 (configuration not stated),12,i,0,-2,-9,-5,-9,.,
COC(=O)c1ccc(COc2ccc3ccc(=O)oc3c2)o1,-1,i,-3,3,0,-3,3,-10,
CCOc1ccc(CN(C)C(=O)c2cccnc2OCC)cc1OC,-4,i,1,2,7,9,-14,.,
CCOc1ccc(C(=O)NC(=S)Nc2ccc(NC(=O)CC)cc2)cc1[N+](=O)[O-],2,i,3,2,7,22,-13,-7,
CC(C)(C)NC(=O)C(c1ccc(F)cc1)N(CC1CCCO1)C(=O)CCC(=O)Nc1ccccn1 (configuration not stated),-5,i,0,0,1,18,4,-6,
CC1CC(C)CN(CC(C)(C)NS(=O)(=O)c2ccccc2)C1 (configuration not stated),15,i,1,-1,27,.,2,-30,
Cc1ccc(-n2ncc(C(=O)N3CCc4ccccc4C3)c2NC(=O)c2ccco2)cc1C,3,i,0,7,-6,-14,-3,.,
Cn1c(=O)c2c(ncn2CC(=O)N/N=C/C=C/c2ccco2)n(C)c1=O,99*,i,-2,2,102*,2,-1,.,eIF4H FP inh retest=57*;PABP FP inh retest=51*
Cc1nc(SCc2ccccc2F)c2cnn(-c3ccccc3)c2n1,7,i,.,.,39,.,17,.,
N#CC(=C1CCCC1)c1nc(-c2ccccc2)cs1,9,i,-2,-1,-9,.,10,.,
COc1ccccc1Nc1nc(-c2c(C)nc3ncccn23)cs1,3,i,4,-28,18,-34,.,-34,
Cc1ccc2c(c1)N(C(=O)CCC(=O)NC1CCN(Cc3ccccc3)CC1)CC(C)O2 (configuration not stated),4,i,-1,3,0,1,0,1,
COc1cccc(-c2c(NC(=O)c3ccco3)oc3ccccc3c2=O)c1,4,i,0,4,-9,.,-18,3,
Cc1ccc(NC(=O)c2ncn(CCCN3CCN(Cc4cccc5ccccc45)CC3)n2)cc1C,.,.,5,-4,.,-5,.,2,
CC(C)C12CCC(C(=O)O)C(C1)C(=O)O2 (configuration not stated),14,i,-3,3,-1,.,.,3,
Cc1ccccc1NC(=S)NC(NC(=O)c1ccccc1C)C(Cl)(Cl)Cl (configuration not stated),-9,i,0,-6,2,-182,27,-8,
CC(=O)N1c2ccc(S(=O)(=O)N3CCC(C(=O)NC(C)c4ccccc4)CC3)cc2CC1C (configuration not stated),2,i,1,-7,-5,-11,-10,-14,
CCN1CCC(NC(=O)Nc2ccc(F)cc2F)CC1,-3,i,3,-1,14,-11,-1,.,
CC1CCCC(NC(=O)c2ccc(CNc3c(N4CCCC4)c(=O)c3=O)cc2)C1C (configuration not stated),0,i,-1,0,-6,-9,-5,-24,
Cc1cc(NC(=O)CCC(=O)N(CC(=O)NCC2CCCO2)c2cccc(F)c2)no1 (configuration not stated),-8,i,0,2,-3,6,1,5,
C=CCn1c(SCC(=O)N2N=C(c3ccco3)CC2c2ccco2)nnc1-c1ccncc1 (configuration not stated),97,i,2,-3,0,-24,-8,.,eIF4H FP inh retest=-6;PABP FP inh retest=5
Cc1ccc2c(CC(=O)OC3CCOC3=O)coc2c1 (configuration not stated),-3,i,-2,-3,-3,26,9,-7,
O=C(Nc1ccc(S(=O)(=O)N2CCOCC2)cc1)c1ccc(Cl)cc1,-2,i,2,-18,0,-6,5,-20,
# Further results.
SMILES,eIF4H FP inh,Rce1 inhib,MT1-MMP act inh,MT1-MMP act inh RFP,PABP FP inh,HIV Env fusion,CSC inhib,Yeast UUG start,others
O=C(COC(=O)CCc1ccc(S(=O)(=O)N2CCOCC2)cc1)NCc1ccccc1,-5,.,6,5,-9,-1,2,0,
O=C(CN1CCN(S(=O)(=O)c2ccc(Cl)cc2)CC1)c1ccc(O)c(O)c1,5,i,5,1,-5,.,-6,-10,
Cc1ccc(CSCCNC(=O)c2ccccc2)cc1,-5,i,1,2,-4,16,11,.,
CCOc1ccc(S(=O)(=O)N2CCN(C(=O)c3cc(-c4ccccc4)nn3-c3ccccc3)CC2)cc1,.,i,-3,-14,.,14,19,-14,
CC(C)c1ccc(C(=O)NNC(=O)c2n[nH]c(=O)c3ccccc23)cc1,.,.,-5,2,.,3,.,-12,
O=C(O/N=C1\CCCCC1c1ccc([N+](=O)[O-])cc1[N+](=O)[O-])c1c(F)cccc1F (configuration not stated),-5,i,3,5,-4,-13,41,-16,
COc1ccccc1Nc1nc(NCc2ccco2)c2ccccc2n1,-3,i,6,-7,-11,-2,24,-17,
CCCN1CCc2c(sc(NC(=O)CCS(=O)(=O)c3ccccc3)c2C(=O)OC)C1,-19,i,-7,4,-15,-4,-3,7,
COC(=O)c1ccsc1NC(=O)CN1CCN(c2ncccn2)CC1,10,i,1,-7,6,-1,-7,-2,
O=C(NCc1ccco1)c1csc2c1CCCCC2,-4,i,-6,-5,-6,.,6,-18,
CC1CC(C)CN(CCCNC(=O)C2CCN(S(=O)(=O)N3CCCCC3)CC2)C1 (configuration not stated),4,.,1,5,7,.,-5,-13,
CC(=O)c1ccc(NC(=O)CSc2nccn2C)cc1,7,i,3,2,16,7,-13,.,
Cc1ccc(C(=O)/C=C/c2ccc(Br)cc2)o1,-12,i,-3,-2,6,6,21,-10,
CC1=NN(c2ccc(C(=O)O)cc2)C(=O)/C1=C/c1ccc(-c2ccccc2F)o1,28,i,3,5,18,.,32,-2,
O=c1c2cc(N3CCOCC3)ccc2[nH]c(=S)n1Cc1ccco1,91*,i,0,3,57*,-76,-5,-30,
Cc1nn(-c2ccccc2)c(Cl)c1/C=N\NC(=O)c1cncc(Br)c1,-4,i,-2,6,-2,-17,-13,-23,
N#CCCN(Cc1cccnc1)C(=O)c1ccc(S(=O)(=O)N2CCOCC2)cc1,6,i,1,4,0,.,-5,-7,
O=C(CCN1C(=O)COc2ccccc21)NCCN1CCN(c2cccc(Cl)c2)CC1,-10,i,1,-6,-4,.,2,11,
COc1cccc(C(=O)Nc2ccc3[nH]ncc3c2)c1OC,8,i,1,0,4,i,5,-31,
Nc1cc(N)cc(C(=O)Nc2ccc3c(c2)C(=O)NC3=O)c1,43,i,2,1,4,31,10,-10,
O=C(NCc1cccc(Cl)c1)c1ccc2ccccc2n1,0,i,2,4,3,-4,.,-11,
O=C(NCCc1ccc(Cl)cc1)c1ccc(OCC2CCCO2)cc1 (configuration not stated),-8,i,3,-6,4,-18,-4,5,
CC(=O)c1ccc(NS(=O)(=O)c2cc(-c3cnc(C4CC4)o3)ccc2C)cc1,-3,i,0,-4,10,5,.,-11,
Nc1ccc(Cl)c(-c2nc3ncccc3o2)c1,5,i,5,3,-1,.,2,-19,
Cc1ccc(S(=O)(=O)n2cnc(C)c2)cc1,5,i,.,.,11,9,-10,-5,
# (more compounds)
SMILES,eIF4H FP inh,Rce1 inhib,MT1-MMP act inh,MT1-MMP act inh RFP,PABP FP inh,HIV Env fusion,CSC inhib,Yeast UUG start,others
O=C(CNC(=O)c1ccc(Cl)cc1)OCC(=O)c1ccccc1,-4,i,2,6,5,-7,2,-10,
COc1cccc(CC(=O)OCC(=O)NC2(C#N)CCCC2)c1,.,.,-2,2,.,8,.,-11,
CC(C)C(=O)Nc1ccc(Oc2ccc3c(c2)C(=O)NC3=O)cc1,-6,.,7,-3,-5,-91,-4,-10,
CC1(C)OCC(COC(=O)Nc2cccnc2)([N+](=O)[O-])CO1,-11,i,-4,-2,2,-5,-6,-18,
CCCc1cc(C(=O)N2CCN(C(c3ccccc3)c3ccccc3)CC2)no1,4,i,-6,-7,-4,-4,6,-10,
CC(CC(=O)N1CCN(S(=O)(=O)c2ccc(Cl)cc2)CC1)n1cncn1 (configuration not stated),-11,i,1,4,0,15,-1,-17,
COC(=O)Cc1ccc(NC(=S)NCc2ccc(F)cc2)cc1,4,i,1,-1,-9,7,0,-19,
Cc1cc(-c2csc(NC(=O)c3ccc(=O)n(C)n3)n2)c(C)n1CC1CCCO1 (configuration not stated),35,i,0,2,26,.,2,.,
Cc1cn(Cc2ccccc2)c(=O)[nH]c1=O,1,i,4,3,-2,.,-4,-16,
Cc1cc(CNC[C@H]2O[C@@H](n3ccc(N)nc3=O)[C@H](O)[C@@H]2O)no1,.,.,1,6,.,-15,.,-16,
O=C(N/N=C/c1ccncc1)c1ccc(NC(=O)c2ccc(Cl)cc2)cc1,-20,.,4,2,22,-3,2,.,
O=c1[nH]c(Cc2cccs2)nc2scc(-c3ccc(Cl)cc3)c12,-6,i,-1,-21,0,-26,15,-14,
O=C(c1cccc(NS(=O)(=O)c2cccc(F)c2)c1)N1CCCC1,-4,i,-5,-2,5,.,.,-6,
Cc1ccc(NC(=S)Nc2cc(C(=O)O)ccc2N2CC3CC(C2)c2cccc(=O)n2C3)cc1C (configuration not stated),-7,i,-6,-5,-11,-6,-6,.,
CNc1ncc(C(=O)c2ccc(Br)cc2)s1,4,i,1,-2,8,-28,.,0,
COc1cccc(C(=O)Nc2nnc(CCS(=O)(=O)c3ccc(C)cc3)s2)c1,2,.,-3,-5,-4,-1,-16,-11,
Cc1cc(NC(=O)NC(C(F)(F)F)C(F)(F)F)no1,-8,i,2,1,-10,19,6,0,
Cc1ccc(NC(=O)CSc2n[nH]c(-c3ccco3)n2)c(C)c1,-6,i,4,5,-7,0,1,.,
CCOc1ccc(NC(=O)Nc2ccc(NC(C)=O)cc2)cc1,-1,i,2,5,3,-5,-9,.,
Cc1ccccc1NC(=O)COC(=O)C1(C)CC1(Cl)Cl (configuration not stated),6,i,0,4,3,-4,10,.,
COc1ccc(-c2cnc3c(NC=O)cc(-c4cccc(NS(C)(=O)=O)c4)cn23)cc1OC,.,.,5,-7,.,-110,.,-16,
CC(C)CC(N)c1cn([C@@H](CCC(=O)O)C(=O)N2CCNCC2)nn1 (some centres not stated),-13,i,0,0,0,-41,-2,-18,
CCN(CC)C(=O)c1ccc(-c2nnc(Nc3ccc(C(=O)NC)cc3)c3ccccc23)cc1,4,i,1,-3,-2,6,-4,8,
COC(=O)c1ccccc1NC(=O)CCCOc1cc(=O)n(C)c2ccccc12,.,.,5,3,.,11,.,-5,
Cn1cccc1/C=C1\SC(=Nc2ccccc2)NC1=O,-1,i,6,-9,0,-153,52,-15,

# Screening results from PubChem BioAssay.

# These rows are one share of the data. The share of hits here may be higher or lower than overall.
